RE007 growth inh = less growth of the S. pombe RE007 Vpr strain; S. pombe RE007 Vpr strain, BacTiter-Glo ATP luminescence, 24 h; control for the full effect not named in the record; Potency, µM (highest dose often 92.2 µM), for the others: top-dose activity change, negative = less growth; AID 651644; actives 0.21% (n = 360,000); active = well fitted falling curve with a large enough effect; inconclusive = small, poorly fitted or top-dose-only effect; inactive = no such curve, though single readings can be large or run the other way;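 also: % is scaled to controls: 0 for no effect and ±100 for the full control effect; nearly all actives have a fitted effect of over 50% in size; the assay follows cell death caused by Vpr and the record does not say whether a fall means rescue or toxicity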
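Fission yeast RE007 carrying one integrated HIV-1 vpr copy, seeded at OD 0.01 in PMG+AL medium with 23 nL pinned compound. Grown 24 h at 30 degrees; viability read by BacTiter-Glo luminescence after 5 min.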
Cruzain Triton = blocks cruzain activity in presence of Triton detergent | actives 0.43% (n = 200,000) | purified cruzain, Z-FR-AMC fluorescence, 0.01% Triton | Potency, µM, inactives show max response, negative = inhibition, usual class: inhibitors; active = well fitted curve in the direction sought with a large enough effect; inconclusive = small, poorly fitted or top-dose-only effect, or another doubt; inactive = no such curve, though single readings can be large; an effect the other way counts as inactive or inconclusive;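 also: plate controls were neutral wells for no effect and buffer without enzyme for full effect; nearly all actives have a fitted effect of over 40% in size; top concentration of the series not given in the record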
Target sequence (P25779 123-467 limits assumed): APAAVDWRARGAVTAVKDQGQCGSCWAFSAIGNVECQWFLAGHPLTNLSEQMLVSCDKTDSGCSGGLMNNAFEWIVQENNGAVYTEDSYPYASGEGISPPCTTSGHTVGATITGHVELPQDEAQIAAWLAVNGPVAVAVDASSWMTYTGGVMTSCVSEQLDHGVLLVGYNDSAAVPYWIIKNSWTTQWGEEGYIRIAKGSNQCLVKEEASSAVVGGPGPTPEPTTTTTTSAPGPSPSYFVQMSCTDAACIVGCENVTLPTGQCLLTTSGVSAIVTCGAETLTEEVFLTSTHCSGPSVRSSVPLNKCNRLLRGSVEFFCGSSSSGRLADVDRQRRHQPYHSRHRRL
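Sodium acetate buffer (100 mM, pH 5.5) containing 5 mM DTT and 0.01% Triton X-100 hosted 1.5 nM cruzain and test compound for 15 min at room temperature. Cleavage of 2 uM Z-FR-AMC was then tracked by fluorescence.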
StopGo reporter = lowers the luciferase signal of an FMDV 2A StopGo reporter; human cells with a luciferase reporter of 2A StopGo recoding; control for the full effect not named in the record; Potency, µM (highest dose often 57.9 µM), for the others: at the top dose signal change, negative = less light; actives 1.2% (n = 410,000); AID 1159524; active = well fitted falling curve with a large enough effect; inconclusive = small, poorly fitted or top-dose-only effect; inactive = no such curve, though single readings can be large or run the other way; tested in HEK293T cells; also: % is scaled to controls: 0 for no effect and ±100 for the full control effect; nearly all actives have a fitted effect of over 45% in size; luciferase light after 4 h
MARV entry inh = blocks Marburg virus binding to or entry into cells. Marburg virus pseudotyped entry inhibition, cell reporter; control for the full effect not named in the record; about a third of the inactives were read at about 46 µM. Potency, µM (titrated, usually from 37.8 µM), for the others: at the top dose activity change, negative = inhibition, usual class: inhibitors. actives 1.8% (n = 300,000); active = well fitted inhibition curve with a large enough effect; inconclusive = small, poorly fitted or top-dose-only effect, or effect the other way; inactive = flat fitted curve, though single readings scatter; tested in HEK293 cells; about a fifth of its hits are not listed in these tables; also: % is scaled to controls: 0 for no effect and ±100 for the full control effect; luciferase read-out
SARS PLpro yeast = SARS-CoV PLP inhibition in yeast | Potency, µM (doses to about 32.9 µM), for the others: at the highest dose activity, positive = growth rescue | S. cerevisiae expressing SARS-CoV PLpro, growth rescue; control for the full effect not named in the record | actives 0.19% (n = 330,000); also: 0% is about no effect; nearly all actives have a fitted effect of over 55% in size; growth read by luminescence after 48 h
Cruzain noTriton = inhibitors of Trypanosoma cruzi cruzain without detergent | P25779 | purified cruzain, Z-FR-AMC fluorescence, no detergent | actives 2.3% (n = 200,000) | AID 1476 | Potency, µM, inactives show max response, negative = inhibition, most hits filed as inhibitors; active = well fitted curve in the direction sought with a large enough effect; inconclusive = small, poorly fitted or top-dose-only effect, or another doubt; inactive = no such curve, though single readings can be large; an effect the other way counts as inactive or inconclusive;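 also: plate controls were enzyme without inhibitor for no effect and buffer without enzyme for full effect; nearly all actives have a fitted effect of over 40% in size; top concentration of the series not given in the record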
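Detergent-free condition (0.00005% Triton X-100) in acetate buffer pH 5.5 with DTT. 1.5 nM enzyme and compound were pre-mixed 15 min, then 2 uM Z-FR-AMC substrate added; reaction progress from fluorescence change between first and third reads (60 s).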
NS1 function inh = influenza NS1 inhibition; S. cerevisiae slowed by influenza A NS1, growth recovery by OD600; Potency, µM (titrated, usually from 46.1 µM), inactives show top-dose activity, positive = more growth; actives 0.4% (n = 270,000); AID 2326; also: actives are rising curves; nearly all actives have a fitted effect of over 50% in size
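Read-out: OD600 growth recovery of NS1-expressing budding yeast. Cells grown overnight at 30C in -URA glucose medium, washed, resuspended and diluted 1:100 in 2% galactose assay medium, pH 6.0. Same strain lacking NS1 served as positive control.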
Lassa entry inh = blocks Lassa virus binding to or entry into cells; Lassa virus pseudotype entry inhibition, cell reporter; control for the full effect not named in the record; Potency, µM (top dose mostly 37.9 µM), inactives show at the highest dose activity change, negative = inhibition, usual class: inhibitors; actives 1.2% (n = 300,000); AID 540256; active means well fitted inhibition curve with a large enough effect; inconclusive means small, poorly fitted or top-dose-only effect, or effect the other way; inactive means flat fitted curve, though single readings scatter; tested in HEK293 cells; also: % is scaled to controls: 0 for no effect and ±100 for the full control effect; nearly all actives have a fitted effect of over 50% in size; luciferase read-out
Starred values were filed as active, the others as inactive; u = inconclusive; x = no result given; & = joins results of further samples; [ ] = dose if it differs, or a comment. Unless noted, calls follow the shape of the dose curve; as a rule, active means well fitted rising curve with a large enough effect; inconclusive means small, poorly fitted or top-dose-only effect; inactive means no such curve, though single readings can be large or run the other way. Potency is read from the fitted curve at half-maximal effect.

SMILES	RE007 growth inh	Cruzain Triton	StopGo reporter	MARV entry inh	SARS PLpro yeast	Cruzain noTriton	NS1 function inh	Lassa entry inh
CCCCC1=CC2=C(c3ccco3)C(=O)C(C)(OC(=O)c3ccc(OC)cc3)C(=O)C2=CN1C(CO)CO (stereo unspecified)	-8%	x	-11%	4%&4%[14.2 µM]	0%	x	7%	x
S=C1NCN(CCc2ccccc2)CN1Cc1ccccc1	16%	x	-17%	-1%	0%	x	6%	x
CCc1nnc(NC(=O)c2ccc(NC(=O)C(C)C)cc2)s1	7%	x	54%[activator]	x	-1%	x	0%	x
C=C(C)C(C)(C#CCN1CCCC1)OC(C)=O (stereo unspecified)	u	1.6%	1%	6%	2%	-13%	-4%	-7%
CC(O)Cc1cn(CC(=O)N2CCNCC2)nn1 (stereo unspecified)	46%	x	6%	x	1%	x	u	x
O=C(COc1ccc(Cl)cc1)NCc1nnc(SCC(=O)NCCc2ccccc2)o1	6%	3.4%	1%	-8%	-2%	-6%	5%	3%
CS/C(=N\S(=O)(=O)c1cccs1)Nc1ccc(Cl)cc1	11%	-5.0%	-5%	u	-6%	-5%	-5%	9%
CCOC(=O)CSc1c(-c2ccccc2)c2cc(Cl)ccc2[nH]c1=O	6%	-15%	0%	u	0%	27%	-16%	-11%
CCCC1=Nc2cc(C(=O)NCCCOCC)ccc2Sc2ccccc21	-15%	-3.4%	-14%	1.6µM*	-4%	u	-2%	-41%
CC(C)c1ccc(C(=O)OCC(=O)c2c(N)n(C)c(=O)n(C)c2=O)cc1	19%	x	u	u	5%	x	x	u
CC(C)OC(=O)c1cc(NC(=O)c2nn(C)cc2Br)cc(C(=O)OC(C)C)c1	22%	-11%	0%	u	3%	u	-8%	5.2µM*
Cc1cc(C(=O)N2CCN(c3ccc([N+](=O)[O-])cc3)CC2)c(C)o1	-6%	x	-29%	x	u	x	-6%	x
Cc1ccc(S(=O)(=O)NCCOc2nc(N(C)C)nc(N(C)C)n2)cc1	15%	x	-8%	x	1%	x	1%	x
CCOc1ccc(NC(=O)Nc2cc(C)ccc2OC)cc1	-11%	-5.9%	32%[activator]	-22%	-23%	-12%	12%	29%
COc1ccc(N2CC(NC(=O)/C=C\c3ccccc3)CC2=O)cc1 (stereo unspecified)	x	-4.8%	-5%	x	x	-1%	x	-10%[46.1 µM]
COCc1c(C(=O)OCC(=O)c2ccc[nH]2)oc2ccccc12	-4%	x	-5%	4%[46.1 µM]	-22%	x	x	-1%[46.1 µM]
CC(C)(C)SCCNC(=O)COc1ccccc1	-6%	6.5%	x	0%	2%	-14%	-2%	2%
Cn1cnnc1Sc1ccc(/C=C(\CC(=O)O)c2nc3ccccc3s2)cc1[N+](=O)[O-]	3%	x	5%	14%[46.1 µM]	-1%	x	8%	8%
COc1cccc(CSc2nc3nc(C)cc(C)n3n2)c1	12%	x	-2%	x	0%	x	-3%	x
COc1ccc(N(CC(=O)N/N=C/c2cccc3c2OCCO3)S(=O)(=O)c2ccc(NC(C)=O)cc2)cc1	-7%	-3.6%	0%	-16%	-3%	16%	-20%	u
Cc1ccsc1C(=O)OCC(=O)c1ccc[nH]1	-13%	x	29%	u	7%	x	x	8%
Cc1c(Br)cc(C(=O)N2CCN(CCO)CC2)c(C)c1C	6%	4.6%	0%	-6%	3%	-3%	0%	-9%
O=C1NC(=O)/C(=C/c2ccccc2OCc2ccccc2)S1	-14%	x	1%	3%[46.1 µM]	-2%	x	-8%	x
O=C(NCc1cccnc1)c1ccc(S(=O)(=O)N2CCCCCC2)cc1	3%	x	u	-18%[46.1 µM]	-2%	x	13%	2%
Cc1cc(C(=O)CSc2ccc(F)cc2)cc(C)c1OC(=S)N(C)C	4%	1.8%	0.79µM*	u	-10%	4%	9%	u
N#CCSc1nc2ccccc2c(=O)n1CCC(=O)NC1CCCCC1	5%	3.8%	-7%	u	-2%	-10%	-6%	10%
CCOC(=O)C1=C(CNCCOc2ccc(OC)cc2)NC(=O)NC1c1ccc2c(c1)OCO2 (stereo unspecified)	2%	x	-16%	0%[46.1 µM]	1%	x	x	-16%
COc1cc(OC)c(NC(=O)NCc2ccc3c(c2)CCN3C(=O)c2ccccc2)cc1Cl	x	-2.9%	u	x	x	-6%	x	-14%[46.1 µM]
CC(NC(=O)CN1C(=O)COc2ccc(Cl)cc21)c1ccccc1 (stereo unspecified)	x	-2.0%	-21%	-8%[46.1 µM]	x	-7%	x	-14%[46.1 µM]
CCc1ccc(N2C(=O)CSC23C(=O)N(Cc2cccc(F)c2)c2ccccc23)cc1 (stereo unspecified)	x	0.4%	u	x	x	-4%	x	-2%[46.1 µM]
COc1ccc(OC(C)C(=O)Nc2cccc(F)c2)cc1 (stereo unspecified)	4%	x	-16%	u	0%	x	0%	5%
O=c1[nH]c(-c2ccccc2)nn1-c1ccc(Br)cc1Br	12%	x	6%	x	8%	x	8%	x
CC(=O)Nc1cc(C(=O)NCc2ccco2)ccc1Sc1ccc(C)cc1	4%	-5.2%	7%	-1%	-9%	2%	0%	3%
COc1ccc(-c2c(C#N)c(N)nc3c2c(=O)n(C)c(=O)n3C)cc1Cl	-16%	x	-24%	13%	x	x	x	-1%
Cc1ccc(OCC(=O)Nc2cc(C)on2)c([N+](=O)[O-])n1	6%	x	17%	u	0%	x	-2%	u
COc1ccc(NC(=O)C2CC(=O)OC23CCCCC3)cc1 (stereo unspecified)	2%	-0.5%	-1%	-19%	10%	8%	2%	-3%
COCCCNC(=S)Nc1ccccc1C	-5%	-0.2%	-12%	-2%	7%	1%	13%	4%
COC(=O)c1sccc1NC(=S)Nc1cc(C)cc(C)c1	8%	-1.9%	21%	u	0%	-9%	10%	-2%
O=C(CSc1nnc(NC(=O)c2ccc(F)cc2)s1)NC1CCCC1	1%	x	8%	3%[46.1 µM]	12%	x	-8%	9%[46.1 µM]
O=C(O/N=C(\c1ccccc1)c1ccncc1)c1ccccc1F	-14%	x	8%	u	12%	x	-37%	4%
CCn1cc(C(=O)OCC(=O)c2ccccc2)c(=O)c2ccc(C)nc21	4%	x	-5%	u	-2%	x	x	-1%
C=CCS(=O)(=O)N1CCCC(N2CCN(c3ccccc3OC)CC2)C1 (stereo unspecified)	-2%	x	-4%	x	0%	x	5%	x
COc1ccc(CN(CC(=O)NC2CCCC2)C(=O)CCC(=O)Nc2nc(C)cs2)cc1	-4%	x	-12%	-22%[46.1 µM]	-4%	x	-7%	-15%[46.1 µM]
Cc1ccc(-c2csc(NC(=O)CSc3nc4ccccc4o3)n2)cc1	x	-4.1%	30%[activator]	u	16%	u	26%	u
CN(C)C(=O)CSc1nc2ccccc2n1CC(=O)N1CCN(c2ccccc2)CC1	1%	3.1%	-24%	-3%	0%	13%	-1%	3%
COC(=O)c1sc(NC(=O)/C=C/c2ccccc2Cl)nc1C	-1%	x	14%	u	-4%	x	x	10%[46.1 µM]
COc1cc(CNCc2cccs2)ccc1OCC(=O)NC(C)(C)C	13%	2.0%	-15%	9.2µM*	-12%	-8%	6%	-3%
Cc1cccn2c(=O)c3cc(C(=O)NC4CCCC4)c(=N)n(C4CCCC4)c3nc12	-2%	u	-24%	u	1%	u	-8%	u
CCc1nc(SCc2ccc(OC)c(Br)c2)n[nH]1	-8%	x	15%	x	-6%	x	-2%	x
N#C/C(=C(/O)CN1CCOCC1)c1nc(-c2ccccc2)cs1	4%	3.8%	x	18%	2%	-4%	10%	21%
COc1nc(NCCc2ccc(OC)c(OC)c2)nc(OC)n1	8%	2.0%	-18%	-2%[46.1 µM]	x	0%	-1%	2%
COc1ccc(CCNC(=O)CSc2nc3ccccc3o2)cc1	-12%	-7.6%	-9%	-14%	1%	0%	-96%	-2%
COc1cccc(CNC(=O)COC(=O)c2nc(Cl)c(Cl)c(Cl)c2Cl)c1	-23%	x	u	x	-2%	x	x	u
CCOC(CNC(=O)C(=O)Nc1cc2c3c(c1)CCN3C(=O)CC2)OCC	5%	x	-13%	u	-1%	x	13%	8%[46.1 µM]
Cn1cc(CNC(=O)c2cc(COc3ccc4c(c3)CCCC4)on2)cn1	47%	x	-23%	-4%	-5%	x	-17%	-19%
COc1cc(-c2nnc(SCC(=O)Nc3ccc(C(=O)O)cc3)o2)cc(OC)c1OC	3%	x	-9%	1%[46.1 µM]	3%	x	x	1%[46.1 µM]
COc1ccc(NC(=O)CSc2nnc3c(C)cc4ccccc4n23)cc1	x	2.4%	-14%	x	x	-5%	x	-1%[46.1 µM]
NCCCC[C@H]1CNC(=O)C(=O)N1CCc1cccc(F)c1	-5%	x	-7%	x	1%	x	4%	x
Cc1cc(C)c(NC(=O)CSc2nc(=O)[nH]c3c2CCCC3)c(C)c1	x	-0.3%	-26%	x	x	13%	x	-12%[46.1 µM]
COC(=O)c1c(NC(=O)c2cc3nc(-c4ccc(OC)cc4)cc(C(F)(F)F)n3n2)sc2c1CCCC2	x	1.6%	-2%	x	x	-4%	x	24%[46.1 µM]

Later entries:
SMILES	RE007 growth inh	Cruzain Triton	StopGo reporter	MARV entry inh	SARS PLpro yeast	Cruzain noTriton	NS1 function inh	Lassa entry inh
C=C(C)CSc1nc2sc3c(c2c(=O)n1-c1ccccc1)CC(C(C)C)OC3 (stereo unspecified)	x	0.2%	-4%	x	x	-12%	x	-12%[46.1 µM]
Cc1nn(C(=O)C2CC2)c(C)c1Sc1ccc(Cl)cc1	28%	-8.6%	-4%	-16%	-23%	-9%	-5%	-2%
Nc1c(-c2ccc(Cl)cc2)cnn1-c1cc(C(F)(F)F)cc(C(F)(F)F)c1	8%	x	-10%	u	-3%	x	4%	-6%[46.1 µM]
COc1cc(-c2nnc(SCC(=O)c3cc(C)n(CC4CCCO4)c3C)o2)cc(OC)c1OC (stereo unspecified)	14%	-0.3%	u	u	-3%	u	3%	u
CCOc1cc(/C=C2\CN(C)C/C(=C\c3ccc(O)c(OCC)c3)C2=O)ccc1O	-7%	x	18µM*	u	-1%	x	1%	u
COc1ccccc1C(=O)NNC(=O)c1ccccc1[N+](=O)[O-]	7%	1.0%	-5%	1%	-23%	-7%	11%	-8%
COc1cc([N+](=O)[O-])ccc1NC(=O)C[n+]1ccccc1C	-2%	-3.6%	0%	5%[46.1 µM]	6%	-11%	15%	12%
COc1ccc2c(c1OC)C(=O)c1ccccc1C2=O	x	1.7%	x	x	0%	14%	7%	x

Outcome played no part in choosing rows; overall some 4.7% were active at least once.
